Bioassay records deposited in PubChem BioAssay by National Center for Advancing Translational Sciences (NCATS).
EPAC2 ant val – Validation qHTS for antagonist of cAMP-regulated guanine nucleotide exchange factor 4 (EPAC2); AID 1645886, 2021; actives 1.7% (n = 16,000); Potency, µM (series often up to 112 µM), for inactives: top-dose activity, negative = inhibition, hits mostly inhibitors; EPAC2 Rap1B BODIPY-GDP exchange, fluorescence; Rap guanine nucleotide exchange factor 4 (Homo sapiens), Q8WZA2; active = well fitted inhibition curve with a large enough effect; inconclusive = small, poorly fitted or top-dose-only effect; inactive = no such curve, though single readings can be large or run the other way;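 note: 100% = activation by cAMP agonist control; nearly all actives have a fitted effect of over 40% in size; the record reuses the description of the EPAC1 agonist screen; inactives centre near -10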
Target sequence (Q8WZA2 whole entry, looked up): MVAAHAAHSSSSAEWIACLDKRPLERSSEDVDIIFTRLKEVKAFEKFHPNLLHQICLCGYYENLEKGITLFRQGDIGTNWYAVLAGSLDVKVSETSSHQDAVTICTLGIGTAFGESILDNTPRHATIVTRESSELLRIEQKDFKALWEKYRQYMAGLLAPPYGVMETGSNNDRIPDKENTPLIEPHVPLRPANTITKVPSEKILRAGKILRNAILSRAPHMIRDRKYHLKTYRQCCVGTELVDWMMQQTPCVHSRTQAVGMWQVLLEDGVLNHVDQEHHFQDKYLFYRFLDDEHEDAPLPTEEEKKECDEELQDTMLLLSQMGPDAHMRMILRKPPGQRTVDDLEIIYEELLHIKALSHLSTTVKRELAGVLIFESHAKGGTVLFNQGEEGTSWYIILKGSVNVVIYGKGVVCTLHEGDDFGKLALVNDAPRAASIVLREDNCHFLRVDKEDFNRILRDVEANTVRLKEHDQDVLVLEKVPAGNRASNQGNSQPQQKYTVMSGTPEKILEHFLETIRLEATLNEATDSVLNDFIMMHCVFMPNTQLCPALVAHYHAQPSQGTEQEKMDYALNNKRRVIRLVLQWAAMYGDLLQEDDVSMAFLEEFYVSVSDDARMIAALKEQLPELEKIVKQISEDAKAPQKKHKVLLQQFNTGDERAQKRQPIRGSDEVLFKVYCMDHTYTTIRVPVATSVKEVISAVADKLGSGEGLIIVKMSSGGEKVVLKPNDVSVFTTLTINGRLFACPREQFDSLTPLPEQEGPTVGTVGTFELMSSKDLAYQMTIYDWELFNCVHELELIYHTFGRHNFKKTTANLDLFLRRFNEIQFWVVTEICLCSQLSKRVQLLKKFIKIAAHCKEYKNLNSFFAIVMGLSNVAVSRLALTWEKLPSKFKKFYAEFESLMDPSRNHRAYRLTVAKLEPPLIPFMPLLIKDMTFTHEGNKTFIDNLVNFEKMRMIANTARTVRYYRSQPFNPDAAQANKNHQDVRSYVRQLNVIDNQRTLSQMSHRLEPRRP
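Normalized against a 6.5 mM cAMP agonist control, compounds were tested on 100 nM EPAC2 exchanging Rap1B-bound BODIPY-GDP (250 nM) for 50 uM GDP. Fluorescence drop (ex 480, em 540 nm) was tracked at room temperature over 30 min at 5-min intervals.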
The depositor's hits bear a star; ? = inconclusive; & = joins results of further samples; [ ] = another dose, or the depositor's remark. Potency is the fitted concentration of half-maximal effect. Not all compounds are listed (hit frequency here may not be typical).

Molecule | EPAC2 ant val
CCN1CCCC1CNC(=O)c1cnn(-c2nccc(-c3ccco3)n2)c1C1CC1 (stereo unspecified) | 12%
NCC(O)(CS(=O)(=O)O)c1ccc(Cl)cc1 (stereo unspecified) | -12%
O=C1c2ccccc2C(=O)c2c(NCCc3ccc(O)cc3)ccc(NCCc3ccc(O)cc3)c21 | 1%
CCNc1ncc2nc(-c3cc(F)cc(F)c3)c(=O)n(Cc3cccs3)c2n1 | -11%
COc1ccc(-c2nc3cnc(Nc4ccccc4)nc3n(Cc3cccs3)c2=O)cc1 | -11%
CC(C)NCC(O)c1cc(O)cc(O)c1 (stereo unspecified) | -16%&3%&-9%
CCc1cccc(N(C)C(N)=Nc2cccc3ccccc23)c1 | -7%&21%
O=C(CCCCCN1CCN(c2ccccc2-c2ccccc2)CC1)NC1CCCc2ccccc21 (stereo unspecified) | -21%
CCCCNc1c(C(=O)OCC)c(C)nc2c1cnn2CC | ?
CC(=O)N1CCC[C@@]2(CCN(c3ccccc3)C2)C1 | ?
CN/C(=C\[N+](=O)[O-])NCCSCc1ccc(CN(C)C)o1 | 0%&11%&-14%&-7%
Cc1cccc(C)c1N(CCCc1cccnc1)C(=O)C(C)N (stereo unspecified) | -3%
C[C@H]1[C@H](C)CC[C@]2(C(=O)O)CC[C@]3(C)C(=CCC4[C@@]5(C)CC[C@H](O)C(C)(C)[C@@H]5CC[C@]43C)[C@H]12 (stereo partly specified) | -21%
CC(C)c1c(C(=O)N(C)Cc2cccc3ncccc23)cnn1-c1nccc(-c2ccco2)n1 | -17%
CC(C)N=C(N)/N=C(\N)Nc1ccc(Cl)cc1 | -10%[56.6 µM]
CCCCC/C=C\C=C\[C@H](O)CCCCCCCC(=O)O | -13%[1.17 µM]
O=c1cc(-c2ccccc2)[nH]c2nc(Cl)ccc12 | -8%
COc1ccc(-c2nc3cnc(N(C)C)nc3n(CCc3ccccc3)c2=O)cc1 | -9%
O=c1c(-c2ccccc2)nc2cnc(Oc3ccccc3)nc2n1C[C@H]1CCCO1 | ?
O=c1c(-c2ccccc2)nc2cnc(Nc3ccccc3)nc2n1Cc1cccs1 | 11%
CC(C)C[C@H]1C(=O)N2CCC[C@@H]2[C@]2(O)O[C@](NC(=O)[C@@H]3C=C4c5cccc6[nH]c(Br)c(c56)C[C@H]4N(C)C3)(C(C)C)C(=O)N12 | -5%
Cc1cc(O)cc(C)c1Cl | ?
Cc1nc2sccn2c1CN1CCC2(CC1)CC2C(=O)Nc1ccc2c(c1)OCO2 (stereo unspecified) | 3%
CN(C)Cc1ccccc1-c1cc(NC2CC2)ncn1 | -6%
Cc1ccc2c(c1)cc(CN(C)Cc1nc(C)cs1)c(=O)n2C | -18%
COc1ccc(C(=O)N2CCC[C@@]3(CCN(c4cccc(-c5ccccc5)c4)C3)C2)cc1 | -25%
N#CCCn1c(=O)c(-c2cc(F)cc(F)c2)nc2cnc(N3CCOCC3)nc21 | 5%
CCC(C(=O)NC(N)=O)c1ccccc1 (stereo unspecified) | 1%
CC#C[C@]1(O)CC[C@H]2[C@@H]3CCC4=CC(=O)CCC4=C3[C@H](c3ccc(N(C)C)cc3)C[C@@]21C | ?
Cc1nc(NCc2cccc3c2OCO3)sc1-c1ccn(CC2CCCN(C)C2)n1 (stereo unspecified) | ?
COc1ccc(CN2CCC(=O)N([C@H](CO)CC(C)C)CC2)cc1 | 1%
COc1cccc(Cn2c(=O)c(-c3ccc(Cl)cc3)nc3cnc(N4CCNCC4)nc32)c1 | 50µM*
CC(=O)NCCNc1nc(-c2ccc3c(c2)OCO3)nc2ccccc12 | -19%
Cc1cc(C(=O)NCC2CCC3(CCN(Cc4ccc5ccccc5c4)CC3)O2)n(C)n1 (stereo unspecified) | -21%
CCC1(C2CCN(C(=O)c3ccc(C)c(C)c3)CC2)NC(=O)N(CCc2scnc2C)C1=O (stereo unspecified) | -18%
OC[C@]1(O)OC[C@@H](O)[C@H](O)[C@@H]1O | -27%
COc1ccc(CN2CCOc3c(cc(-c4ccc(OC)nn4)cc3OC)C2)c(O)c1 | ?
COc1cc(/C=C/C(=O)c2cccs2)cc(OC)c1OC | 12%
Cc1nc2c(OCc3ccccc3)cccn2c1CC#N | ?
C[C@]12C=CC(=O)N[C@@H]1CC[C@@H]1[C@@H]2CC[C@]2(C)[C@@H](C(=O)Nc3cc(C(F)(F)F)ccc3C(F)(F)F)CC[C@@H]12 | -3%
CNc1nc(-c2cccnc2)nc2ccccc12 | -31%
CS(=O)(=O)Nc1cccc(-c2nccc(NCc3ccccc3)n2)c1 | -12%
COc1ccc(C(=O)NCc2cccnc2)cc1C(=O)NCc1cccnc1 | -2%
COc1ccc(C2NC(=S)N3C(c4ccc(OC)c(OC)c4)NC(=S)N23)cc1OC (stereo unspecified) | -8%
Cc1ncc(Cc2ccccc2)c(C2CCN(S(=O)(=O)C[C@]34CC[C@H](CC3=O)C4(C)C)CC2)n1 | ?

Of the compounds above, 2 contain a cyano group:
Molecule | EPAC2 ant val
N#CCCn1c(=O)c(-c2cc(F)cc(F)c2)nc2cnc(N3CCOCC3)nc21 | 5%
Cc1nc2c(OCc3ccccc3)cccn2c1CC#N | ?

Later entries:
Molecule | EPAC2 ant val
COc1ccc(-c2ccnc(-n3ncc(C(=O)NC(C)(C)CO)c3C3CC3)n2)cc1F | -23%
Cc1nn(C)c(Cl)c1CN1CCOc2ccc(CN3CCC(Oc4cccnc4)CC3)cc2C1 | -6%
CCC1CN(CCNC(=O)c2cccnc2C)Cc2cc(OC)ccc2O1 (stereo unspecified) | -23%
Cc1cc(C(=O)Nc2cccc(-c3nc(CNC(=O)c4cnccn4)c(C)o3)c2)c(C)o1 | -12%
O=C(CNC(=O)c1cccnc1)c1ccc(F)cc1 | 5%
CC(=O)Nc1ccc(NC(=S)NC(=O)c2ccc(C(C)(C)C)cc2)cc1 | 12%
NC[C@H]1O[C@@H](n2cnc3c(N)ncnc32)[C@H](O)[C@@H]1O | -30%
COCCNc1ncnc2ccc(-c3cccc(NS(C)(=O)=O)c3)cc12 | -21%
CCCCCc1ccc(-c2cn(Cc3cccc(OC)c3)nn2)cc1 | ?
CN(C)c1ncc2nc(-c3ccccc3)c(=O)n(Cc3cccs3)c2n1 | 15%
N#Cc1cccc(-c2nc3cnc(N4CCNCC4)nc3n(C3CC3)c2=O)c1 | ?
COCC(=O)Nc1c(I)c(C(=O)NCC(O)CO)c(I)c(C(=O)N(C)CC(O)CO)c1I (stereo unspecified) | -15%[56.6 µM]
CCOC(=O)C1=C(C)NC(C)=C(C(=O)OC)[C@H]1c1cccc([N+](=O)[O-])c1 | 18µM*
O=S1(=O)CCO[C@H]2Cc3ccccc3[C@H]2N1Cc1ccc(F)cc1 | ?
CC#CCOC(=O)c1c(C)nc2sc3c(c2c1N)CCC(O)C3 (stereo unspecified) | -8%

Random excerpt: seven compounds from above.
Molecule | EPAC2 ant val
OC[C@]1(O)OC[C@@H](O)[C@H](O)[C@@H]1O | -27%
COc1ccc(C(=O)NCc2cccnc2)cc1C(=O)NCc1cccnc1 | -2%
NC[C@H]1O[C@@H](n2cnc3c(N)ncnc32)[C@H](O)[C@@H]1O | -30%
CCC1CN(CCNC(=O)c2cccnc2C)Cc2cc(OC)ccc2O1 (stereo unspecified) | -23%
CCN1CCCC1CNC(=O)c1cnn(-c2nccc(-c3ccco3)n2)c1C1CC1 (stereo unspecified) | 12%
CCC(C(=O)NC(N)=O)c1ccccc1 (stereo unspecified) | 1%
COc1ccc(-c2nc3cnc(N(C)C)nc3n(CCc3ccccc3)c2=O)cc1 | -9%

More records.
Molecule | EPAC2 ant val
CC(=O)OCC(=O)[C@@]1(OC(C)=O)[C@@H](C)C[C@H]2[C@@H]3C[C@H](F)C4=CC(=O)C=C[C@]4(C)[C@@]3(F)[C@@H](O)C[C@@]21C | -19%
O=C(NCCN1Cc2ccccc2OC(c2ccsc2)C1)c1cncs1 (stereo unspecified) | -20%
CC1(C)CCC[C@]2(C)C3CC(=O)O[C@@]3(C)CC[C@H]12 (stereo partly specified) | ?
Cn1c(=O)cnc2cnc(OCc3ccccc3)nc21 | -8%
Cc1cnc(CNc2cc(-c3ccoc3)ncn2)cn1 | 3%
O=S1(=O)CCOCCCN1Cc1cccc(C(F)(F)F)c1 | ?
CS(=O)(=O)N1CCC2(CC1)CN(Cc1cc(C(F)(F)F)cc(C(F)(F)F)c1)C2 | -30%
COc1ccccc1C(=O)N[C@@H]1c2ccccc2C2(CCN(Cc3cccnc3)CC2)[C@H]1O | -3%
C=C(CC)C(=O)c1ccc(OCC(=O)O)c(Cl)c1Cl | ?
COc1cccc(-c2nc(NC3CCNCC3)c3ccccc3n2)c1 | -2%
CC(C)c1cc2c(cc1S(=O)(=O)O)[C@@]1(C)CCC[C@@](C)(C(=O)O)[C@@H]1CC2 | 37%
O=S1(=O)CCOC[C@H](c2ccccc2)N1Cc1ccc(Cl)c(Cl)c1 | -63%
CC(Cc1ccc(O)c(O)c1)(NN)C(=O)O (stereo unspecified) | -15%
Cc1cnc(-n2ncc(C(=O)N(C)Cc3cccc4ncccc34)c2C(C)C)nc1-c1ccc(F)cc1 | 0%
CC1(C)S[C@@H]2[C@H](NC(=O)COc3ccccc3)C(=O)N2C1C(=O)OCC1CCCCC1 (stereo partly specified) | -20%

Continued.
| structure | EPAC2 ant val |
| --- | --- |
| COc1cccc(Cn2c(=O)c(-c3cc(F)cc(F)c3)nc3cnc(N(C)C)nc32)c1 | 20% |
| COC(=O)[C@@H]1CCCN1C(=O)c1c(OC)cc(=O)n2c1CCN(Cc1ccc3cccnc3c1)CC2 | -4% |
| S=C(S)O[C@@H]1C[C@@H]2C[C@H]1[C@@H]1CCC[C@H]21 | 50µM* |
| O=P(O)(O)OC[C@H](O)CO | ? |
| Cc1cc(N(C)C)c(C)cc1/C=C/c1ccnc2ccccc12 | 251%[activator] |
| COc1ccc(C(=O)N2CCC3(CCN(Cc4ccc(C#N)cc4)CC3)CC2)cc1 | -18% |
| CC(/C=C/c1cccc(Oc2ccc(F)cc2)c1)N(O)C(N)=O (stereo unspecified) | 79µM* |
| CCC(=O)Oc1ccc2c(c1)CC[C@@H]1[C@@H]2CC[C@]2(C)[C@@H](OC(=O)CC)CC[C@@H]12 | 27% |
| COC(=O)[C@@H]1CCCN1C(=O)c1cnn(-c2nccc(-c3cc(C)sc3C)n2)c1C1CC1 | -33% |
| NC(=O)[C@@H]1CSSCCC(=O)N[C@@H](CCCCN=C(N)N)C(=O)NCC(=O)N[C@@H](CC(=O)O)C(=O)N[C@@H](Cc2c[nH]c3ccccc23)C(=O)N2CCC[C@H]2C(=O)N1 | 0% |
| O=C(c1cnccn1)N1CCC2(CC1)CCN(c1cccc(-c3ccccc3)c1)CC2 | ? |
| CC(=O)NCCNc1nc(-c2ccc(N(C)C)cc2)nc2ccccc12 | -11% |
| O=C1C(c2[nH]c3ccccc3c2O)=Nc2ccccc21 | -26% |
| O=c1c(-c2cccs2)nc2cnc(Nc3ccccc3)nc2n1C[C@H]1CCCO1 | 34%[activator] |
| O=C(CCCCCCC(=O)Nc1ccccc1)NO | -2%&-18% |
| CC(=O)OC1CC(OC(C)=O)[C@]2(C)C(CC(O)[C@]3(C)C2CC[C@@]2(C)C(c4ccoc4)OC(=O)C4O[C@]432)C1(C)C (stereo partly specified) | -26% |
| O=c1c(-c2ccccc2)nc2cnc(Oc3cccc(Cl)c3)nc2n1C1CC1 | -11% |
| CN1CCCC2(CCN(C(=O)c3cc(C(F)(F)F)cc(C(F)(F)F)c3)CC2)C1 | ? |
| COCCN1CCN(C(=O)c2cnn(-c3ncc4c(n3)-c3ccc(OC)cc3CC4)c2C2CC2)CC1 | -22% |
| CC[N+]1(CC(=O)c2ccc(OC)cc2)CCCCC1 | 14% |
| Nc1ccn(C[C@@H](CO)OCP(=O)(O)O)c(=O)n1 | -29% |
| Cc1cccc(CNc2ccnc(-c3ccc(C(=O)N(C)C)cc3)n2)c1 | ? |
| COc1ccc(CN2CC[C@H]3C=CC[C@@H](C(=O)N4CCOCC4)[C@H]3C2=O)cc1OC | 10% |
| OCCN1CCN(Cc2ccc3c(c2)CN(Cc2cnc(-c4ccccc4)s2)CCO3)CC1 | -5% |
| COc1ccc(Oc2ncc3ncc(=O)n(Cc4ccc(F)cc4)c3n2)cc1 | ? |
| COc1cccc(Cn2c(=O)c(-c3ccccc3)nc3cnc(OC)nc32)c1 | -28% |
| CC(=O)Nc1ccc(S(=O)(=O)Nc2ccc([N+](=O)[O-])cc2)cc1 | -19% |
| COc1ccc(Oc2ncc3nc(CCc4ccccc4)c(=O)n(CCC#N)c3n2)cc1 | -14% |
| O=C(C[N+]1(CC(O)c2ccccc2)CCOCC1)c1ccccc1 (stereo unspecified) | -7% |
| CCNc1ncc2ncc(=O)n(C3CC3)c2n1 | -20% |
| NC(=O)N/N=C/c1ccc([N+](=O)[O-])o1 | -5% |
| Cc1oc(-c2cccc(NC(=O)c3ccccn3)c2)nc1CNC(=O)c1cc(F)c(F)cc1F | -8% |
| CCC(=O)c1ccc2c(c1)N(CCCN1CCN(CCO)CC1)c1ccccc1S2 | -3% |
| O=C1CC[C@H](N2C(=O)c3ccccc3C2=O)C(=O)N1 | -31% |
| Cc1ncc2c(c1CNC(=O)CN1CCCCC1)CCN(C(=O)c1ccc(F)cc1Cl)C2 | 5% |
| Cc1cc(OCCOCC[N+](C)(C)Cc2ccccc2)ccc1C(C)(C)CC(C)(C)C | ? |
| O=C1CCN(Cc2ccccc2)CCN1CCOc1ccccc1 | -5% |
| CC1c2ccccc2CN1CC1=NCCN1 (stereo unspecified) | -5% |
| Cc1oc(-c2ccccc2NC(=O)c2ccccc2)nc1CNC(=O)c1cccc(-n2cccn2)c1 | -10% |
